High-throughput results (PubChem BioAssay)
RN4220 kill – kills Staphylococcus aureus RN4220; S. aureus RN4220 growth, OD600, 16 h; inhibition, % (concentration not given with the values); 330,000 tested, 0.33% active;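 active means z-score of -3 or lower and OD600 up to 0.18 on both plates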;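 further: plate controls were untreated cells for no effect and reference antibiotic for full effect; stock transfer was 100 nL into about 80 µL; one replicate is shown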
Mtb hypoxia rep – reduces hypoxia-regulated biosensor signal in M. tuberculosis. M. tuberculosis hypoxia-regulated fluorescent reporter, fluorescence. fluorescence inhibition, % (concentration not given with the values). 300,000 tested, 0.1% active. AID 1159583;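 active means 35 to 45% if threefold the growth effect, above 45% if 1.5-fold the growth effect; inactive means the rest, general growth blockers included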;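 further: wells of about 50 µL received 100 nL stock; 0% = vehicle wells and 100% = reference inhibitor wells; whole bacteria with a GFP reporter of the hypoxia response; strong numbers were not always called active; many hits fall short of the cut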
ugtP null kill – compounds lethal to S. aureus RN4220 ugtP deletion mutant. OD600 growth, 16 h; some inactives read as strong as hits. growth inhibition, % (no concentration beside the values). 330,000 tested, 0.54% active;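 active means z-score under -3 and OD600 up to 0.15 on both plates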;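 further: plate controls were untreated wells for no effect and antibiotic for full effect; wells of about 80 µL received 100 nL stock; the first replicate is given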
PrP UTR inh – suppresses PrP 5' UTR mRNA reporter expression | AID 488862 | 340,000 tested, 0.35% active | cell-based PrP 5' UTR mRNA reporter, plate reader | inhibition, % (no concentration beside the values);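 active means every replicate at 50% or more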;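 further: 0 = median of the neutral control wells; tested in H4 reporter cells; numbers are from one replicate; inactives centre near -14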
Autofluor counter – compound fluorescence in toxin protease inhibitor counterscreen | compound autofluorescence counterscreen, microsphere flow cytometry; active compounds read high | fluorescence intensity (concentration not given with the values) | 360,000 tested, 3.1% active;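 active means at least 3 SD above the mean of all compounds, about 16000 in these data; inconclusive means too few beads counted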;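 further: 100 nL of 1 mM stock went into each well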
BJeLR lethal – kills HRASV12-expressing BJeLR cells; inhibition, % (concentration not given with the values); BJeLR (HRASV12) viability, CellTiter-Glo ATP luminescence, 48 h; reference of the scale not given here; 300,000 tested, 0.17% active;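 active means replicate mean above 50%; inconclusive means above 50% but judged a plate artefact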;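 further: 50 nL library stock added to about 25 µL; numbers are from one replicate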
Mtb hypoxia rep growth – further read-out of Mtb hypoxia rep, marked with its call; growth inhibition, %; measured here: M. tuberculosis growth (absorbance);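 0% = vehicle and 100% = reference antibiotic; read after six days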
* = called active by the depositor; ? = inconclusive; / = no result given.

SMILES | RN4220 kill | Mtb hypoxia rep | Mtb hypoxia rep growth | ugtP null kill | PrP UTR inh | Autofluor counter | BJeLR lethal
COc1ccccc1CCN1CCCC(CN(C)C(=O)CCC(N)=O)C1 (stereo not drawn) | -0.2 | -2.1 | 0.5 | 4.1 | -18.5 | 2995 | -1.0
Cc1ccc(C2C(C#N)=C(N)Oc3cc(C)oc(=O)c32)o1 (stereo not drawn) | 4.4 | 4.8 | 19.1 | 13.3 | -12.9 | 5665 | 7.8
O=S(=O)(NCCCN1CCOCC1)c1ccc2ccccc2c1 | 5.5 | 13.1 | 1.6 | 8.8 | -21.1 | 2109 | 5.3
CCCCN1C(=O)c2ccc(C(=O)Nc3ccc(C)c(S(=O)(=O)N(C)C)c3)cc2C1=O | 1.5 | 3.8 | 2.9 | -4.8 | -16.2 | 6673 | 5.0
O=C(Nc1ccc2c(c1)OCCO2)C1CCCN(S(=O)(=O)c2cccc3nsnc23)C1 (stereo not drawn) | -0.1 | 0.5 | -1.9 | -0.9 | -4.2 | 7045 | -4.8
O=C(N/N=C/c1cccs1)[C@H]1C[C@@H]1c1ccccc1 | / | / | / | / | -6.2 | 9275 | -7.0
[N-]=[N+]=NC(CCN1CCC(O)CCC1=O)c1ccccc1 (stereo not drawn) | 1.4 | 3.3 | 6.3 | -5.3 | / | / | /
CCOc1ccc(NC(=O)CN(C)C(=O)CC2CC3CCC2C3)cc1OCC (stereo not drawn) | -3.0 | 5.2 | -0.1 | 1.3 | -11.0 | 4750 | -13.6
C[C@H](NC(=O)[C@@H]1CSC2c3ccccc3C(=O)N21)C(=O)NCCc1ccc(F)cc1 (stereo partly drawn) | 4.2 | 3.9 | -0.8 | 2.9 | -14.9 | 5072 | 2.2
CC(C)(C)c1ccc(C(=O)NC(=S)Nc2ccc(N3CCOCC3)cc2)cc1 | -7.6 | / | / | -8.0 | 10.8 | 2449 | 31.6
c1ccc(-c2cc(-c3nc4ccccc4[nH]3)c3ccccc3n2)cc1 | -2.9 | 7.6 | 4.3 | -7.4 | -1.9 | 2145 | 5.8
CC(C)N(CCNCc1nnc(-c2ccccc2)o1)C(C)C | 1.4 | -1.6 | -3.6 | 6.0 | -22.2 | 4743 | -4.8
NC(=O)C1(N2CCCCC2)CCN(C(=O)c2ccccc2)CC1 | 2.0 | -5.7 | 0.0 | 0.9 | -5.3 | 6221 | 2.7
COC(=O)c1cc(Cl)cc2c(CCO)c[nH]c12 | 6.2 | 4.5 | 6.3 | 3.5 | -7.0 | 3962 | /
CC(=O)c1cccc(NC(=O)Nc2ccc(C(=O)N3CCOCC3)cc2)c1 | -1.5 | 2.6 | 2.7 | 1.2 | -17.8 | 8985 | -4.8
O=C(COC(=O)c1ccc2ccccc2c1O)NCc1ccccc1 | 2.5 | -6.5 | -1.7 | -4.9 | -17.2 | 3864 | /
Cc1ccc(C2(C)NC(=O)N(CC(=O)N3CCN(S(=O)(=O)c4ccc(Cl)s4)CC3)C2=O)cc1 (stereo not drawn) | -3.5 | -11.5 | 4.9 | -2.3 | -4.1 | ? | 8.9
CC(=O)Nc1ccc(NC(=O)c2ccc(S(=O)(=O)N(C)c3ccccc3)cc2)cc1 | 0.1 | 2.4 | 7.0 | -2.7 | -11.1 | 8419 | /
O=C(Nc1ccc(N2CCN(C(=O)c3ccccc3)CC2)cc1)c1ccc(Br)o1 | -8.3 | 7.9 | 16.4 | -7.5 | -12.4 | 2990 | -14.3
O=C(COC(=O)c1c(F)cccc1F)Nc1ccc(N2CCCCC2)cc1 | 7.0 | 9.5 | 9.0 | -1.6 | -24.2 | 4773 | /
COc1ccc(/C=C2/C(=O)NC(=S)N(C3CC3)C2=O)cc1CN1C(=O)c2ccccc2C1=O | -0.9 | 17.0 | -4.8 | 0.6 | -25.7 | 8500 | /
COc1ccc(/C=N/NC2=NCCCCC2)cc1 | / | / | / | / | -4.5 | 8460 | -8.9
COCCN1C(=O)/C(=C/c2ccc(N3CCCC3)cc2)SC1=S | 0.5 | -3.3 | 9.2 | -1.5 | -18.4 | 18513* | /
Cc1cc(NC(=S)N(Cc2ccc(Cl)cc2)Cc2ccc(C(=O)O)cc2)ccc1Cl | 12.4 | 0.9 | 6.8 | 7.6 | -6.7 | 4389 | 5.1
Cn1c(=O)n(Cc2ccccc2)c(=O)c2c1nc1n2CCN1Cc1ccco1 | 3.4 | 4.7 | 3.3 | 0.2 | 5.6 | 3188 | 1.2

Structural class: those above with an aryl methoxy group
SMILES | RN4220 kill | Mtb hypoxia rep | Mtb hypoxia rep growth | ugtP null kill | PrP UTR inh | Autofluor counter | BJeLR lethal
COc1ccccc1CCN1CCCC(CN(C)C(=O)CCC(N)=O)C1 (stereo not drawn) | -0.2 | -2.1 | 0.5 | 4.1 | -18.5 | 2995 | -1.0
COc1ccc(/C=C2/C(=O)NC(=S)N(C3CC3)C2=O)cc1CN1C(=O)c2ccccc2C1=O | -0.9 | 17.0 | -4.8 | 0.6 | -25.7 | 8500 | /
COc1ccc(/C=N/NC2=NCCCCC2)cc1 | / | / | / | / | -4.5 | 8460 | -8.9

Other compounds.
SMILES | RN4220 kill | Mtb hypoxia rep | Mtb hypoxia rep growth | ugtP null kill | PrP UTR inh | Autofluor counter | BJeLR lethal
COc1ccc(OC)c(C2=NS(=O)(=O)N(C)C(C(=O)NCc3ccco3)=C2)c1 | 4.0 | -1.7 | 1.0 | 6.5 | -9.7 | 5154 | -5.7
COCCn1c(=S)[nH]c2ccccc21 | -0.7 | 8.0 | 19.2 | 7.1 | -9.5 | 4147 | 5.8
COCCNC(=O)Cn1cc(C(=O)c2ccccc2F)c2ccccc21 | 4.9 | 7.6 | 8.5 | 8.6 | -25.0 | / | 12.1
CCN1CCN(C(=O)CSc2nc(N)cc(N)n2)CC1 | 2.9 | 6.9 | 2.9 | -2.3 | -55.6 | 3931 | -1.5
Cc1ccccc1NC(=O)CN1C(=O)NC(C)(CCc2ccccc2)C1=O (stereo not drawn) | 5.8 | 1.1 | -1.9 | 6.7 | 1.1 | 2550 | -2.3
CSc1ccccc1NC(=O)CCc1ccccc1 | 6.6 | 0.6 | 8.9 | 5.0 | -13.3 | 4384 | 2.9
CCc1nnc(SCC(=O)Nc2nnc(C)s2)n1CC1CCCO1 (stereo not drawn) | -0.4 | -4.7 | -0.1 | -2.5 | 3.5 | 5391 | -7.1
CCOC(=O)c1c(NC(=O)CN2CCCc3ccccc32)sc(C)c1C | -3.8 | -1.1 | -1.3 | 6.8 | -25.7 | 3260 | -13.6
C=CCc1cccc(/C=N/NC(=O)c2ccc3nc[nH]c3c2)c1O | / | / | / | / | 1.8 | 5833 | 20.8
O=C(COc1nncc2ccccc12)Nc1ccc(F)c(F)c1 | -0.1 | 4.5 | 21.2 | -2.4 | -20.7 | 3964 | -7.8
COc1cc(N)c2ncsc2c1 | 5.6 | 6.2 | 6.6 | 8.2 | -24.8 | 3043 | /
CC1CN(C(=O)C2(C)CC2(Br)Br)CC(C)O1 (stereo not drawn) | 0.4 | -2.0 | -1.2 | 2.9 | -10.9 | 7358 | -2.7
CC(=O)N1CCc2cc(S(=O)(=O)NC(Cc3ccccc3)C(=O)NC3CCCCCC3)ccc21 (stereo not drawn) | 8.3 | 4.7 | 1.8 | 3.0 | -16.2 | 10037 | -1.7
C/C(=C\c1ccccc1)C(=O)NCCc1ccccc1 | / | / | / | / | -58.2 | 2510 | 18.0
CC/C(=N\NC(=O)CCC(=O)NCc1ccccc1)c1ccc(O)cc1 | / | / | / | / | -12.7 | 3510 | 3.6
CCOC(=O)c1cc(-c2ccc(F)cc2)n(CC(=O)NC(C)CC)c1C (stereo not drawn) | 3.4 | 2.8 | 1.6 | -3.7 | 1.2 | 2203 | 2.5
CCOc1ccc2oc(C(=O)NC(C)(C)CC)c(C)c2c1 | 0.5 | 20.0 | 9.4 | 7.8 | -65.8 | 4745 | /
COC(=O)c1ccc(C=Cc2c(-c3ccc(OC)cc3)sc3ccccc23)cc1 | -9.0 | 5.5 | 6.8 | 36.7 | / | / | /
CCOc1ccc(-c2csc(NNC3=NCCCCC3)n2)cc1 | 8.5 | 4.9 | -3.8 | -5.8 | -17.6 | 4214 | -0.4
Cc1c(C(C)(C)C)sc(=NC(=O)c2ccccc2O)n1C | -1.3 | 12.6 | 0.8 | 0.4 | -59.1 | 3053 | 1.4
CCCN(CCC)CCCOC(=O)c1ccc(Cl)cc1Cl | 0.5 | / | / | 6.6 | -18.7 | 2339 | 1.7
COc1ccccc1-c1nnc(C2CCN(S(=O)(=O)c3cccc([N+](=O)[O-])c3)CC2)o1 | 2.1 | 3.0 | 0.6 | 4.3 | -8.9 | 5291 | 7.3
COc1ccccc1/C=N/NC(=O)C(=O)NCc1cccnc1 | / | / | / | / | -33.3 | 5054 | 7.0
COc1cccc(NC(=O)C2CCN(C(=O)NC3CCCCC3)CC2)c1 | 0.7 | 7.5 | -0.9 | 4.4 | -15.9 | 5857 | -0.9
COc1ccc(-c2nc(-c3ccccc3)nc(N3CCN(C)CC3)c2C#N)cc1 | -4.6 | 2.0 | 2.0 | 16.1 | -8.4 | 6308 | -0.8

(more compounds)
SMILES | RN4220 kill | Mtb hypoxia rep | Mtb hypoxia rep growth | ugtP null kill | PrP UTR inh | Autofluor counter | BJeLR lethal
COc1ccc(-n2ncc3c(=O)n(CC(=O)Nc4ccc5c(c4)OCCO5)cnc32)cc1 | 1.9 | -10.8 | -6.8 | -2.4 | 6.0 | 3468 | -9.4
O=C(Nc1ccccc1)C(Cl)C(=O)c1ccccc1 (stereo not drawn) | 63.9 | 10.3 | 10.4 | 91.6* | -40.9 | 3625 | -16.3
CCCNS(=O)(=O)c1ccc(C(=O)NCC2CCCO2)cc1 (stereo not drawn) | 7.4 | 1.4 | -3.0 | 13.7 | -9.7 | 5794 | -5.0
COc1ccc(-c2nnc(SCC(=O)NN=Cc3ccccc3C(=O)O)n2-c2ccccc2)cc1 | 20.2 | 5.9 | 6.8 | 18.0 | / | / | /
COc1cccc(C2NC(=O)NC(C)=C2C(=O)Nc2ccc(C)cc2)c1OC (stereo not drawn) | 2.3 | -2.8 | 8.8 | 0.1 | -6.9 | 9014 | -10.3
Cc1nnc(SCC(=O)Nc2ccc([N+](=O)[O-])cc2)n1C | 5.5 | 7.7 | 12.9 | 3.5 | -11.6 | 4378 | -2.7
COc1ccccc1CNc1nc2ccccc2n1CCN1CCCCC1 | 4.1 | 21.2 | 7.0 | 0.8 | -34.9 | 9387 | 7.5
COc1ccc(NC(=O)c2ccc(C(=O)Nc3ccc(OC)cc3OC)cc2)c(OC)c1 | 1.3 | 3.7 | 10.9 | -4.5 | -112.0 | 2009 | -5.0
CCCCONc1ncnc2nonc12 | 2.3 | 1.2 | 8.7 | -4.0 | 1.5 | 2487 | -11.8
COc1ccc(-c2cn(-c3cccc(C)c3)c(=O)[nH]2)cc1OC | -6.1 | 8.2 | 12.2 | 1.0 | -30.8 | 7033 | -9.7
CC(=O)NC(=S)Nc1cccc2c(C)cc(C)nc12 | 4.5 | 8.4 | 5.5 | -6.0 | -10.2 | 2078 | -12.5
O=C1c2cccc3cccc(c23)C(=O)N1CCN1CCN(C(=S)Nc2ccccc2)CC1 | 92.7* | 13.0 | -0.3 | 97.8* | -4.8 | 7289 | 2.1
C/C(C=NNC(=O)Cn1cnc2ccccc21)=C\c1ccccc1 | -0.3 | 6.2 | 11.9 | 4.4 | / | / | /
CN(C(=O)C(C)(C)C)c1ccc(OCC(=O)N2CCc3ccccc3C2)cc1 | 9.5 | 6.6 | -3.8 | 15.1 | -13.5 | 3749 | 9.1
CC1(C)Oc2ccc3ccc(=O)oc3c2C(/C=N/O)=C1Cl | / | / | / | / | -17.0 | 3622 | -0.7
COc1cc(OC)cc(C(=O)NNC(=O)CNC(=O)c2ccc(Br)o2)c1 | 2.3 | 11.8 | 9.8 | 1.8 | -16.0 | 7393 | 5.7
CSc1nnc(C(C)(C)C)c(=O)n1N=Cc1c(O)ccc2ccccc12 | 5.0 | 14.4 | -2.2 | 12.2 | / | / | /
CN(C)c1cccc(NC(=O)c2cccc3ccccc23)c1 | 0.3 | 1.8 | 0.8 | 5.9 | -19.4 | 4109 | 5.6
Cc1cc(O)c(C2(C(F)(F)F)NCCNC2=O)cc1C (stereo not drawn) | 1.8 | 4.2 | 5.7 | 0.1 | -22.8 | 10642 | /
COc1ccc(NC(=O)CSc2n[nH]c(N)n2)c([N+](=O)[O-])c1 | 2.6 | 1.3 | -0.6 | 4.8 | -20.2 | 23423* | -4.2
O=c1oc2ccccc2c(O)c1Sc1c(O)c2ccccc2oc1=O | 29.2 | 7.1 | -2.6 | 12.4 | -16.6 | 3875 | /
